# gsp ag = gsp mutant agonism; gsp mutant cells, cAMP HTRF, 30 min; control for the full effect not named in the record; Potency, µM (series often up to 76.9 µM), for inactives: top-dose activation (cAMP increase), hits mostly activators; 340,000 compounds, 0.13% hits; AID 624287; active = well fitted activation curve with a large enough effect; inconclusive = small, poorly fitted or top-dose-only effect, or another doubt; inactive = no such curve, though single readings can be large or run the other way; cell line not stated here;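 also: phosphodiesterase inhibitor Ro 20-1724 added with compounds to block cAMP breakdown; potency is read from the fitted curve at half-maximal effect; nearly all actives have a fitted effect of over 60% in size; about a fifth of the inactives were tested at one dose only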
#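 Cells stably selected in G418 were plated at 2000/well, grown 16-24 hr, then given compounds in DMSO with the PDE inhibitor […] (300 uM solution added) for 30 min at 37C; cAMP was read by HTRF.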
# Sfp inh = inhibitors of Bacillus subtilis Sfp phosphopantetheinyl transferase. Potency, µM, without a hit: max response, negative = inhibition, usual class: inhibitors. Q9F4F7. 310,000 compounds, 3.5% hits. Biochemical Sfp PPTase activity, qHTS. AID 1490; active = well fitted inhibition curve with a large enough effect; inconclusive = small, poorly fitted or top-dose-only effect, or another doubt; inactive = no such curve, though single readings can be large or run the other way;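 also: the enzyme is Sfp with the accession as filed and its product quenches rhodamine fluorescence; potency is read from the fitted curve at half-maximal effect; 0% = enzyme reaction without inhibitor and -100% = no enzyme wells; top concentration of the series not given in the record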
#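 After 15 min at room temperature with compound, 15 nM Sfp received 5 uM rhodamine-CoA plus 12.5 uM BHQ-2-ybbR (50 mM Hepes pH 7.6, 10 mM MgCl2). Rate came from the fluorescence difference over 30 min, ex 525/em 598 nm.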
# TRPV1 PAM = human TRPV1 potentiation | 320,000 compounds, 0.02% hits | Q8NER1 | potentiation, % at 8.33 µM | TRPV1-expressing cells, Fluo-8 calcium influx, capsaicin EC20 potentiation; host cell line not named in the record; control for the full effect not named in the record | AID 540277; active means potentiation above 80%; inconclusive means 30% to 80%; inactive means below 30%; also: 0% is about no effect
# Target sequence (Q8NER1 whole entry, looked up): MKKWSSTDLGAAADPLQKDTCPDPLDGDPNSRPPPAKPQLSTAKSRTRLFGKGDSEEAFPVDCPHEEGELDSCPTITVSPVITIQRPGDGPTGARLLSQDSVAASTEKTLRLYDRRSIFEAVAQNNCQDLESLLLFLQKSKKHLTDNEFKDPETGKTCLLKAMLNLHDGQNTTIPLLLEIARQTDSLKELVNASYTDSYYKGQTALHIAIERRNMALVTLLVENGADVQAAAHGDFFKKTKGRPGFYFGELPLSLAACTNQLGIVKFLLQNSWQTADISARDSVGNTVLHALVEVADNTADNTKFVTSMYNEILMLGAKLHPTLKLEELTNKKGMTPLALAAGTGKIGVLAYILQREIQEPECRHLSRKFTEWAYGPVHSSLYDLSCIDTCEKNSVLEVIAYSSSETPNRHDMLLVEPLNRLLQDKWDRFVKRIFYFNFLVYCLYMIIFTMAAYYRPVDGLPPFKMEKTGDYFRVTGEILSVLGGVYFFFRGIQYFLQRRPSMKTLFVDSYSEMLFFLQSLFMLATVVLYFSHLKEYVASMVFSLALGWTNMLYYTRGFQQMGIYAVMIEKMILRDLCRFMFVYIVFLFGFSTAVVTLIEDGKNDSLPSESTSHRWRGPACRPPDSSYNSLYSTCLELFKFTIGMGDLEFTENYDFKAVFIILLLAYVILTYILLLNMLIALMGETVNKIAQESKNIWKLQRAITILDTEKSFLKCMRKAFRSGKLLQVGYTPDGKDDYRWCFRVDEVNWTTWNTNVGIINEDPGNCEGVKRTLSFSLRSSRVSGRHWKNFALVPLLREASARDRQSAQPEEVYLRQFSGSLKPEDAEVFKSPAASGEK
#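 Cells expressing TRPV1 were dye-loaded with Fluo-8 and read kinetically: 10 s baseline, 3 min after compound (agonist portion), then 2 min after EC20 capsaicin (allosteric enhancer portion). Calcium-bound dye fluorescence at 480/520 nm.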
# ClpP mod = qHTS Assay for Activators of ClpP; purified B. subtilis ClpP, FRET peptide cleavage, 20 min; Potency, µM (titrated, usually from 57.5 µM), without a hit: at the highest dose activity change, negative = active; 340,000 compounds, 1.9% hits; active = well fitted falling curve with a large enough effect; inconclusive = small, poorly fitted or top-dose-only effect; inactive = no such curve, though single readings can be large or run the other way; also: potency is read from the fitted curve at half-maximal effect; the source files actives as falling curves though it sought activators and does not explain the sign; nearly all actives have a fitted effect of over 65% in size; many hits overshoot -100%
# Target sequence (P80244 whole entry, looked up): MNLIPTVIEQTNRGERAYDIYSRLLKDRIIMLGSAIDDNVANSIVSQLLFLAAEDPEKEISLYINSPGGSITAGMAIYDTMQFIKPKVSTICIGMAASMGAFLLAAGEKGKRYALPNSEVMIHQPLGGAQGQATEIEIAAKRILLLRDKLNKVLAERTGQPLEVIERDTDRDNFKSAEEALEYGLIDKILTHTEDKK
#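 Buffer: 100 mM Tris/HCl pH8, 100 mM KCl, 0.05% low protease BSA, 2.5% glycerol, 0.01% Tween-20. ClpP 10 microg/mL final; 20 min RT; delta FRET normalized to ADEP and DMSO controls.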
# gsp antagonist = gsp mutant antagonism. gsp-mutant cells, cAMP HTRF, 30 min; control for the full effect not named in the record. Potency, µM (titrated, usually from 76.9 µM), without a hit: top-dose activity change, negative = inhibition, hits mostly inhibitors. 340,000 compounds, 0.4% hits. AID 624288; active = falling curve of any shape with a large fitted effect; inconclusive = falling curve, mostly with a smaller effect; inactive = flat or rising curve; cell line not stated here;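 also: intracellular cAMP measured with PDE inhibitor Ro 20-1724 present during compound exposure; potency is read from the fitted curve at half-maximal effect; % is scaled to controls: 0 for no effect and ±100 for the full control effect; nearly all actives have a fitted effect of over 65% in size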
#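 Cells in G418 medium, seeded 16-24 h, 37C; buffer exchange to DPBS + 1 mM CaCl2, 0.5 mM MgCl2, 0.05% BSA; cpds in DMSO + […] (300 uM stock), 30 min 37C; HTRF cAMP detection.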
# TRPML1 inh = blocks the human TRPML1 channel. Q9GZU1. TRPML1-inducible cells, Ca2+ dye fluorescence, FDSS; active compounds read low; inhibition of EC80 agonist-evoked calcium signal. activity change, negative = inhibition, % (concentration not given with the values). 390,000 compounds, 0.02% hits; in the data active means activity change below about -50%; inconclusive means about -30% to -50%; inactive means above about -30%;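 also: stimulus is agonist 54-4 at its EC80 concentration; % is scaled to controls: 0 for no effect and ±100 for the full control effect; the text of the record puts the active cut at -80%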
#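 Calcium fluorescence in TRPML1-DL cells induced overnight with Tet: a 110 s read after compound pin addition, then a 110 s antagonist read after challenge with 54-4 at 4 uM final (EC80).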
# Menin-MLL FL inh = inhibitors of human menin-MLL interaction, wild-type MLL peptide; Fluorescence polarization, fluorescein-MLL peptide displacement from menin; FP activity change, % at 61.4 µM; 290,000 tested, under 10 active; AID 1766; inconclusive = falling polarisation curve, or a change in total fluorescence; inactive = total fluorescence flat and polarisation flat or rising; no compound was filed as active; the % refers to the polarisation; negative = inhibition;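 also: % of control where 0% means no effect; inhibitors lower the polarisation; unlabelled MLL peptide was the positive control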
# The depositor's hits bear a star; u = inconclusive; x = not tested or not shown; & = joins results of further samples; [ ] = another dose, or the depositor's remark. Hits appear at their usual frequency; about 4.9% have a hit in one of these screens.
SMILES,gsp ag,Sfp inh,TRPV1 PAM,ClpP mod,gsp antagonist,TRPML1 inh,Menin-MLL FL inh
O=C(Nc1ccc([N+](=O)[O-])cc1)Nc1cnccn1,u,7.2%,23.6,-5.4%,-9.2%,-13.0,x
CC(=O)c1c(C)[nH]c(C(=O)CSc2nnc(C3CCCCC3)n2N)c1C,-7.1%,-3.6%,8.6,-0.6%,-12.4%,42.0,-2.5
CC(C)(C)[C@H]1CCC(=O)N([C@H](CC#N)Cc2ccccc2)CC1,-12.3%,4.7%,-5.9,-1.9%&0.4%,3.4%,16.7,-5.5
CCCN(CC(=O)NC(=O)NCc1ccccc1)CC(=O)Nc1ccc(F)c(F)c1F,-2.3%,x,x,-1.0%,x,-1.9,x
CC(C)C(=O)NCCc1c[nH]c2ccccc12,28.5%,-10.3%,-11.0,-9.4%,29.3%,-3.0,4.1
O=C1/C(=C\c2ccc([N+](=O)[O-])cc2)CCc2ccccc21,-16.9%,19.1%,-8.0,-0.3%,13.7%,18.3,-2.6
O=[N+]([O-])c1cc(C(F)(F)F)cc([N+](=O)[O-])c1N1CCN(S(=O)(=O)c2ccccc2)CC1,u,-3.5%,4.2,-0.8%,3.8%,-5.1,4.2
Cc1occc1C(=O)N/N=C/c1c(O)ccc2ccccc12,-5.0%,8.3%,-21.0,x,4.7%,u,2.1
O=C(Nc1ccccc1C(=O)O)c1ccc(NC(=O)C2CC2)cc1,-3.3%,6.8%,-2.0,-0.7%,-30.6%,-12.0,x
O=C(NS(=O)(=O)c1ccc(NC(=O)C2CCCO2)cc1)c1ccccc1 (configuration not stated),-4.1%,0.7%,11.7,0.4%,-2.2%,0.5,-0.8
CCOc1ccc(C(C)=O)cc1N1C(=O)C2C3C=CC(O3)C2C1=O (configuration not stated),13.9%,7.94µM*,3.8,1.3%,9.8%,-2.2,1.6
C=C[C@@H]1c2cccc(C)c2N(S(=O)(=O)c2ccc(C)cc2)[C@H](c2ccccc2)C1(C#N)S(=O)(=O)c1ccccc1 (some centres not stated),3.2%,x,x,-14.0%,6.5%,-15.5,x
COc1cc2c3c(c1)-c1c(sn(-c4cc(OC)ccc4OC)c1=S)C(C)(C)N3C(=O)C2=O,-21.8%,-10.1%,-0.1,-1.7%,7.4%,16.5,0.2
Cc1ccc(S(=O)(=O)n2c(C)nc3cc(C)ccc32)cc1,4.4%,15.1%,-13.1,-0.9%,-6.4%,-12.7,-2.3
COCCNC(=O)Cn1cc(C(=S)N2CCCCC2)c2ccccc21,-24.0%,-24.7%,-11.6,x,-5.9%,8.9,5.0
COc1ccc(CNC(=O)CSc2nc3c(oc4ccccc43)c(=O)n2CC2CCCO2)cc1 (configuration not stated),6.0%,x,13.9,0.9%,-10.5%,0.9,x
CCOc1ccc(NC(=O)CN(C)C(=O)CSc2ccccc2)cc1OCC,-1.7%,x,9.0,0.3%,-13.8%,-9.5,x
CCOc1ccc(CC(=O)OCc2cc(=O)n3cc(Br)ccc3n2)cc1,u,15.4%,-5.8,x,-1.5%,-11.5,1.4
Cc1nc2ccc(NS(=O)(=O)c3ccc4c(c3)OCCO4)cc2s1,0.6%,7.3%,10.4,1.4%,-21.9%,35.7,1.6
Cc1cccn2c(=O)c3cc(C#N)c(=NC(=O)c4ccncc4)n(CCCOC(C)C)c3nc12,19.5%,-18.3%,-6.4,7.3%,-20.9%,7.6,u
COc1cc(/C=C2\SC(N)=NC2=O)ccc1O,-8.1%,2.2%,0.0,x,-18.3%,-6.9,u
N#C/C(=C\c1ccc(N2CCOCC2)c([N+](=O)[O-])c1)c1nc2ccccc2[nH]1,-11.1%,-8.9%,-12.0,-2.5%,9.6%,18.2,2.7
O=C(Nc1ccc(Cl)c(Cl)c1)OCCNC(=O)c1ccncc1,-15.8%[15.4 µM],3.3%,-9.4,x,-1.3%,-3.7,0.3
COC(=O)c1ccccc1NC(=O)c1cccc(COc2ccccc2Cl)c1,3.2%,-9.4%,21.5,25.1µM*,-3.3%,13.0,2.6
C=C(C)C1CC=C(C)/C(=N/NC(=O)c2ccc(NC(=O)CCC)cc2)C1 (configuration not stated),-65.3%[inhibitor],11.8%,-0.3,-4.1%,-8.0%,-3.4,-1.5
CCOC(=O)c1sc(NC(=S)NC(=O)C23CC4CC(CC(C4)C2)C3)cc1C,11.6%[15.4 µM],1.6%,1.3,-1.0%,-12.4%,22.0,0.4
CSc1nc(C)c(C(=O)C[n+]2ccccc2C)cc1C#N,-20.2%,5.9%,13.0,1.4%,10.7%,x,3.6
Cc1cccc(NC(=O)c2cc(-c3cc(C)c(C)cc3O)n[nH]2)c1,8.5%[15.4 µM],3.2%,10.3,-0.7%,10.0%,-1.4,4.2
O=C(COC(=O)c1ccccc1O)NCCCc1ccccc1,-3.6%[15.4 µM],-9.3%,-17.1,-2.4%,4.0%,18.9,0.4
C=C(C)Cn1c(N2CCCC2)nc2c1c(=O)[nH]c(=O)n2C,22.4%,9.9%,-3.0,0.6%,-4.7%,19.8,2.4
CCOC(=O)C1CCCN(Cc2ccc(OCc3ccccc3)c(OC)c2)C1 (configuration not stated),0.2%,u,-24.2,0.5%,5.3%,-0.9,0.9
CC(=O)Nc1cc(C(=O)N2CCCC2)ccc1S(=O)(=O)c1ccc(C)cc1,-34.3%[inhibitor],9.1%,-4.1,-2.2%,-0.8%,12.5,4.9
CC(=O)Nc1ccc(C(=O)NCC(c2ccco2)N(C)C)cc1 (configuration not stated),-16.1%,x,x,-0.9%,-2.9%,-6.0,x
O=C(Nc1cccc(-c2ccc(N3CCCCC3)nn2)c1)c1ccco1,6.2%,x,u,-0.8%,u,-9.6,x
COC(=O)c1scc(C)c1NS(=O)(=O)c1ccc(NC(C)=O)cc1,-8.4%[15.4 µM],18.5%,3.3,x,0.6%,24.7,-0.1
C[C@@H]1CN([C@@H](C)CO)C(=O)c2cc(Br)cnc2O[C@@H]1CN(C)S(=O)(=O)c1ccc(F)cc1,u,x,x,-1.5%,x,-15.7,x
O=C(O)c1ccc(NC(=O)C2CC=CCC2C(=O)O)cc1 (configuration not stated),21.2%,12.2%,-3.7,0.6%,2.2%,-2.4,-0.4
COc1ccc(CCN2C(=O)NC(NS(=O)(=O)c3ccc(Cl)cc3)(C(F)(F)F)C2=O)cc1OC (configuration not stated),-0.8%[15.4 µM],21.6%,1.9,x,0.0%,3.7,1.0
CCC(C)NC(=O)CCSc1ccc(C)cc1 (configuration not stated),12.6%[15.4 µM],2.9%,-12.0,-0.4%,7.1%,-6.8,4.1
O=C(c1ccccc1)N1CCN=C1SCc1ccc([N+](=O)[O-])cc1,-7.8%,17.2%,-11.3,-0.6%,0.7%,-4.0,3.0
CC(=O)N1CCc2cc(C(=O)CN3CCCCC3)ccc21,-13.4%,-21.3%,x,-7.1%,5.5%,10.2,3.4
Cc1cc(NC(=O)c2cc(-c3ccccn3)nc3ccc(Br)cc23)no1,u,-24.0%,-5.2,-6.0%,-11.5%,-0.4,x
COc1ccc(NC(=O)CCNS(=O)(=O)c2ccc(C)c(C)c2)cc1OC,4.8%,19.7%,3.8,x,-0.9%,3.8,0.0
COc1ccc(N(Cc2ccccc2)S(=O)(=O)c2ccc(C)cc2)cc1,34.6%[15.4 µM],23.2%,3.7,x,-20.0%,-6.5,2.8
COc1ccc2cc(-c3nc4ccccc4n3C)c(=O)oc2c1,u,11.7%,6.8,-22.4%,7.4%,-1.4,-4.0
O=C(CCc1nnc2n(Cc3ccccc3)c(=O)c3ccccc3n12)NCCN1CCOCC1,u,12.8%,-2.6,u,5.7%,-4.9,-0.8
COC(=O)/C(=N\Nc1ccc(Cl)cc1)Sc1nnc(-c2ccc(OC)cc2)n1C,-21.6%[15.4 µM],-9.1%,24.3,0.7%,-21.0%,-5.1,7.2
COC(=O)C1=C(C)N(C(C)C)C(=O)C1(NC(=O)C1CCCCC1)C(F)(F)F (configuration not stated),2.1%,16.4%,-4.8,-6.6%,0.9%,-4.0,1.2
CNC(=O)C1CC(=O)N(c2ccc(F)c(Cl)c2)C1 (configuration not stated),0.1%,9.0%,-3.2,-0.5%,7.7%,0.1,-1.4
O=C(Nn1cc(C(=O)N2CCN(c3ccccc3F)CC2)c2ccccc2c1=O)c1cnccn1,-2.7%[15.4 µM],-33.2%,16.2,u,-0.8%,-7.8,1.2
CCCN(c1ccc(C(C)C)cc1)S(=O)(=O)c1c(C)[nH]c(=O)[nH]c1=O,11.7%,14.9%,11.2,-1.7%,-29.0%,-6.4,0.4
COc1ccccc1NS(=O)(=O)c1cc(-c2cc(C)no2)ccc1OC,-2.0%,9.8%,6.1,-0.5%,u,7.1,-1.5
CCOC(=O)C(Cc1ccccc1)C(=O)Nc1nccs1 (configuration not stated),-52.9%[inhibitor],1.0%,1.5,-0.7%,0.9%,-9.8,1.5
Cn1c(NC(=O)c2ccccc2F)cc(=O)n(C)c1=O,9.1%,7.4%,-4.0,-0.3%,8.7%,7.8,-4.0
COc1ccc(-c2cc3cc(-c4cc(OC)c(OC)c(OC)c4)ccc3o2)cc1,u,x,1.1,-20.0%,13.8%,-8.4,x
CCCNC(=S)N1CCC(NC(=O)Nc2ccc(C)cc2)CC1,5.4%,-3.1%,3.0,-0.3%,-2.9%,-3.6,-7.7
NC(=O)CSc1nc(-c2ccccc2)c(-c2ccccc2)o1,-0.4%,-4.1%,1.7,u,2.9%,14.4,1.4
S=C(Nc1ccc(Cl)cc1)N1CCCC1,0.1%,8.6%,-2.7,-0.6%,5.6%,-18.8,1.0
COC(=O)[C@@]1(Cc2ccc(F)cc2)[C@H]2c3cc(C(=O)N4CCCC4)n(CCF)c3C[C@H]2CN1C(=O)c1ccccc1,x,-4.8%,x,-2.2%,x,x,6.4
CC(C)CCNC(=O)C(c1ccco1)N(C(=O)Cn1nnc2ccccc21)c1ccc2c(c1)OCO2 (configuration not stated),19.7%,18.7%,9.6,495.4%,-8.6%,-8.7,3.6
COCCn1c(SCC(=O)NC(=O)NCc2ccccc2)nc2ccccc2c1=O,6.2%,x,4.3,-10.3%,7.0%,15.5,x
O=C(Nc1cc(C(F)(F)F)ccc1N1CCCC1)c1cccnc1,-8.6%,15.0%,-6.9,-1.7%,3.0%,1.5,2.2
COc1nc(Cc2ccc(Cl)cc2)nc2ccccc12,-5.0%,16.6%,-0.6,x,10.9%,1.8,0.5
